miR-21 reporter: raises the signal of a miR-21 reporter; HeLa miR-21 FLuc reporter, luciferase, 48 h; Potency, µM (highest dose often 38.3 µM), inactives show at the top dose reporter change, positive = more light; 340,000 tested, under 10 active; AID 2288; active = well fitted rising curve with a large enough effect; inconclusive = small, poorly fitted or top-dose-only effect; inactive = no such curve, though single readings can be large or run the other way;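 further: % of control where 0% means no effect; miR-21 action dims this reporter so a rising signal means less miR-21 action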
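Using DMEM plus 10% FBS, HeLa miR-21-FLuc cells are incubated with test compounds (final up to about 40uM) for 48 hours; firefly luciferase signal is then imaged following reagent-mediated lysis.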
Rango dissoc inh: inhibitors of RanGTP-induced Rango-importin beta complex dissociation. O95149+P62826. Biochemical FRET Rango-importin beta, RanGTP-induced dissociation. Potency, µM (doses to about 46.1 µM), for the others: at the highest dose activity change, negative = inhibition. actives 0.071% (n = 340,000); active means falling FRET ratio curve, often poorly fitted, with flat reads before Ran was added; inconclusive means other falling curves, or compound fluorescence or quenching; inactive means flat or rising ratio curve;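 further: potency means the concentration at half of the fitted maximal effect; % of control where 0% means no effect; nearly all actives have a fitted effect of over 45% in size; -100% = wells without RanGTP and RCC1; the record marks most hits as doubtful in a second field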
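Compounds sat 5 min at room temperature with 0.1 uM Rango biosensor plus 0.25 uM importin beta, then FRET pre-read. RanGTP-RCC1 (0.6 uM Ran, 2mM GTP, 0.2 uM RCC1) added for 45 min, and the CFP/YFP post-read measured blocked complex dissociation.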
GLA inh pH 4.5: blocks human alpha-galactosidase A at pH 4.5 | P06280 | purified enzyme, 4-MU-alpha-Gal fluorescence, pH 4.5 | activity change, negative = inhibition, % at 105 µM | 230,000 tested, under 10 active; inconclusive = small, poorly fitted or top-dose-only inhibition, or a rising curve; inactive = flat fitted curve, though single readings scatter; no compound was filed as active;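 further: 0% = full activity with enzyme and -100% = basal without enzyme; dose as in the result columns while the protocol names 77 µM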
Target sequence (P06280 whole entry, looked up): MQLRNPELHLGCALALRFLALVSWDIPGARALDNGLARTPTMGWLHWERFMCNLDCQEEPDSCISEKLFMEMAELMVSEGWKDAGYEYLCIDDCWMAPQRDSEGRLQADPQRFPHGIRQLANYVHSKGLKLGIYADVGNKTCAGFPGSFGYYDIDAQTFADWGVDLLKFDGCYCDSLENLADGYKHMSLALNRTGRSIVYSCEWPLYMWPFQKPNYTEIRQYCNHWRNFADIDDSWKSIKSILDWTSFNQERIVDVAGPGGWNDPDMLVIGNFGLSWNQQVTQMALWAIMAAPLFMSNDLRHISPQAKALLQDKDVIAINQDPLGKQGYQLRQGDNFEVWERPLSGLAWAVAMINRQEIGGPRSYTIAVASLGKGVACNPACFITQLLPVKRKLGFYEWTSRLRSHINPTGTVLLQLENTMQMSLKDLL
Rango-impB inh: Rango-importin beta binding inhibition. Potency, µM (doses to about 92.2 µM), inactives show at the top dose inhibition of complex formation. Rango CFP/YFP FRET sensor + importin beta, 45 min. Q14974. actives 0.031% (n = 340,000); active = rising FRET ratio curve, often small or poorly fitted; inconclusive = mostly compound fluorescence or quenching in the first reads; inactive = flat curves in all reads;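 further: potency means the concentration at half of the fitted maximal effect; 0% = DMSO wells and 100% = buffer wells lacking importin beta; nearly all actives have a fitted effect of over 15% in size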
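Inhibition scored from the CFP 486 nm/YFP 530 nm FRET ratio 45 min after adding 0.125 microM importin beta to 50 nM Rango biosensor preincubated 5 min with compound (room temperature, PBS with DTT, Tween-20, BSA). No-importin wells as positive control.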
The depositor's hits bear a star; ? = inconclusive; · = not tested or not shown; & = joins results of further samples.

miR-21 reporter | Rango dissoc inh | GLA inh pH 4.5 | Rango-impB inh | molecule
-1% | 4% | -5 | -2.4% | CCCOc1nc2c(c(=O)n(C)c(=O)n2C)n1Cc1cccc2ccccc12
-4% | 8% | 0 | 1.6% | CCCc1cc(=O)[nH]c(SCCCCN2C(=O)c3ccccc3C2=O)n1
· | -2% | · | -3.0% | CNC(=S)Nc1ccc(N2CCCC2)c(S(=O)(=O)Nc2ccc(OC)cc2)c1
· | 0% | · | ? | O=C1CCCN1CCCNS(=O)(=O)c1cccs1
0% | -20% | 4 | 0.0% | COc1cc(OC)c(C2CC(=O)N3CN(C)CSC3=C2C#N)cc1OC (stereo unspecified)
-53% | -13% | · | -4.0% | Cc1cc(-c2nc(-c3ccncc3)no2)ccc1[N+](=O)[O-]
-3% | 15% | 2 | -3.2% | O=C(NC1CCCc2ccccc21)C1CCN(c2c3c(nc4ncnn24)CCC3)CC1 (stereo unspecified)
-39% | -17% | -8 | 2.3% | O=C(Nc1ccc(S(=O)(=O)N2CCCCCC2)cc1)c1ccco1
· | -1% | · | -0.3% | COc1ccccc1C(=O)NC(=O)COC(=O)c1ccc(NC(=O)CC#N)cc1
1% | 6% | -3 | -1.5% | O=C(COC(=O)CCOc1ccccc1)Nc1ncc(Cl)cc1Cl
-6% | -1% | 3 | 0.5% | COc1ccc(CNC(=O)C2CCCN(c3nc4ccccc4o3)C2)c(OC)c1 (stereo unspecified)
2% | -10% | -8 | -1.8% | CCCCOc1ccc(CCC(=O)N/N=C/c2ccco2)cc1
-4% | · | 4 | · | O=C(CSc1nnc(-c2ccc(Cl)cc2)o1)N1CCN(c2ccccc2)CC1
-4% | -4% | -11 | -1.6% | Cc1ccc(N2C(=O)C(NC(=O)c3c(F)cccc3F)(C(F)(F)F)C3=C2CC(C)(C)CC3=O)cc1 (stereo unspecified)
-3% | -14% | -1 | -0.7% | O=C1NC(c2ccccc2)C(C(=O)c2cccs2)C(O)(C(F)(F)F)N1 (stereo unspecified)

One compound at a time, from the list above. Order of values: miR-21 reporter | Rango dissoc inh | GLA inh pH 4.5 | Rango-impB inh
O=C1NC(c2ccccc2)C(C(=O)c2cccs2)C(O)(C(F)(F)F)N1 (stereo unspecified) across the screens: -3% | -14% | -1 | -0.7%
CCCc1cc(=O)[nH]c(SCCCCN2C(=O)c3ccccc3C2=O)n1 across the screens: -4% | 8% | 0 | 1.6%
O=C(Nc1ccc(S(=O)(=O)N2CCCCCC2)cc1)c1ccco1 across the screens: -39% | -17% | -8 | 2.3%
CCCOc1nc2c(c(=O)n(C)c(=O)n2C)n1Cc1cccc2ccccc12 across the screens: -1% | 4% | -5 | -2.4%
O=C(CSc1nnc(-c2ccc(Cl)cc2)o1)N1CCN(c2ccccc2)CC1 across the screens: -4% | · | 4 | ·

The list goes on:
miR-21 reporter | Rango dissoc inh | GLA inh pH 4.5 | Rango-impB inh | molecule
· | 27% | · | -1.1% | Cc1ccc2c(COC(=O)CNS(=O)(=O)c3ccccc3)cc(=O)oc2c1
-12% | 12% | -7 | -1.6% | COc1cccc(C(=O)N2CCN(Cc3cccc(F)c3)CC2)c1
-13% | ? | -2 | ? | O=C(N/N=C/c1ccc(-c2ccc([N+](=O)[O-])cc2)o1)C(O)c1ccccc1 (stereo unspecified)
0% | -4% | -7 | -0.6% | S=c1[nH]nc(-c2ccccn2)n1/N=C/c1c(Cl)cccc1Cl
0% | 14% | -5 | 4.0% | Cc1cc(C)cc(OCC(=O)OCC(=O)Nc2c(C)n(C)n(-c3ccccc3)c2=O)c1
-15% | 25% | -1 | -2.9% | Nc1nnn(CC(=O)N/N=C/c2ccc(Cl)cc2Cl)n1
· | 2% | · | -4.7% | Cc1ccc(NC(=O)CN2C(=O)NC(Cc3c[nH]c4ccccc34)C2=O)cc1 (stereo unspecified)
· | 4% | · | -1.4% | Cc1cc(C)c(C)c(S(=O)(=O)NC(C(=O)NCCc2ccco2)C(C)C)c1C (stereo unspecified)
-51% | -5% | -2 | 4.0% | N#C/C(=C\c1ccc(OCC(N)=O)cc1)c1ccccc1
-2% | 8% | -8 | -5.8% | O=C(COC(=O)c1ccc(Br)cc1)NCCc1ccccc1
-1% | -1% | 8 | 1.2% | O=C(Nc1ccc(N2CCOCC2)cc1)c1ccc(Cl)nc1
-28% | 28% | -13 | -0.1% | O=C(N/N=C/c1cnc(N2CCOCC2)s1)c1ccccc1
-2% | -20% | · | 1.9% | COc1ccc(CCNC(=O)CCC(=O)N2CCOc3ccccc32)cc1OC
· | -8% | · | -2.3% | Cc1ccc(NC(=O)CN(C)C(=O)c2cccc(S(=O)(=O)NCc3cccs3)c2)cc1
-1% | -6% | · | 0.3% | Cc1cc(NC(=O)C(C)SCC(=O)OC(C)C(=O)Nc2ccccc2C)no1 (stereo unspecified)
7% | 0% | · | -0.3% | Cc1nnc(NC(=O)CSc2nnc(C(C)NC(=O)c3ccccc3F)n2C)s1 (stereo unspecified)
-23% | -11% | 5 | -0.6% | CCCCCC(=O)NC(=S)Nc1ccc(Cl)cn1
4% | 1% | -4 | -0.5% | Cn1nc(-c2ccccc2)c(C(=O)NCC(=O)O)c1Cl
-5% | -18% | -15 | 0.5% | CCOC(=O)CC(=O)Nc1nnc(CC(C)C)s1
0% | · | 8 | · | CCN(CC)CCn1c(SCC(=O)Nc2ccc(F)cc2)nc2c(sc3ccccc32)c1=O
· | 6% | · | -0.2% | Cc1cccc(NC(=O)NNC(=O)c2ccccn2)c1
-1% | -19% | 7 | -1.5% | Cc1cc(C(=O)NCC(=O)OCC(=O)N(C(C)C)C(C)C)ccc1[N+](=O)[O-]
0% | 12% | · | 0.3% | CCc1ccc(S(=O)(=O)NC2CCCCNC2=O)cc1 (stereo unspecified)
-3% | 1% | -3 | -1.8% | COC(=O)CS(=O)(=O)c1ccsc1C(=O)Nc1ccc(F)cc1
· | -11% | · | -1.5% | Oc1ccccc1C=NN=CC=Cc1ccccc1
-7% | -15% | 2 | -0.2% | CCOCCCNC(=O)c1cn(CC(C)C)c(=O)c2cc(OC)c(OC)cc12
· | 0% | · | -2.0% | O=C(CN1CCN(c2ccccc2O)CC1)Nc1cc(S(=O)(=O)N2CCCC2)ccc1Cl
-1% | 17% | 5 | 0.7% | CC1=NN(C(=O)COc2ccccc2)C(O)(c2cccnc2)C1 (stereo unspecified)
-7% | 8% | · | 1.0% | O=C(c1cccc(C(F)(F)F)c1)C1CCCN(C(=O)Cn2cncn2)C1 (stereo unspecified)
-43% | 6% | 7 | -3.6% | COc1ccc(N2C(=S)NC3N2C(=S)NC3(C)c2ccccc2)cc1 (stereo unspecified)
-3% | 5% | -2 | 6.5% | Cc1cc(N=Nc2ccccc2C(=O)O)c(C)c(C)c1O
2% | 4% | -4 | 0.4% | COc1ccccc1NC(=O)/C(=C/c1cccs1)NC(=O)c1ccco1
-1% | 16% | 3 | -0.6% | Cc1c(/C=N/NC(=O)C2(O)c3ccccc3-c3ccccc32)cnn1C
1% | 0% | 1 | 1.2% | O=C(O)c1cn(Cc2ccccc2)nc1-c1cccnc1
-15% | 1% | 0&-8&1 | 0.2% | CC(C)(Oc1ccc(CCNC(=O)c2ccc(Cl)cc2)cc1)C(=O)O
0% | 8% | · | 0.1% | COc1ccc(N(CC(=O)N2CCC(C(N)=O)CC2)S(=O)(=O)c2ccccc2)cc1
-22% | 15% | · | 0.0% | CC(=O)N[C@@H](C)C(=O)N1CCC(n2nccc2NC(=O)CCCc2ccccc2)CC1
-34% | 13% | 6 | -0.9% | O=[N+]([O-])c1ccc(O)c(NC(=S)Nc2ccccc2)c1
-10% | -18% | 7 | 1.8% | Cc1nc2ccc(NC(=O)N3CCOCC3)cc2s1
3% | 3% | · | -1.5% | O=C(COc1ccc2c(c1)oc(=O)c1ccccc12)N[C@@H](Cc1ccccc1)C(=O)O
· | 10% | · | 4.1% | Cc1ccc(C2NC(=O)c3ccccc3N2)c(C)c1 (stereo unspecified)
· | -20% | · | -0.3% | CC(C)(C)OC(=O)N1CCC(C(=O)Nc2cccc(C(=O)N3CCCC3)c2)CC1
0% | 6% | · | -2.8% | Cc1cc(C)nc(N2CCCC(C(=O)Nc3cccc(Cl)c3)C2)n1 (stereo unspecified)
14% | -16% | · | -4.8% | COc1ccc(-c2nc3ccccc3nc2-c2ccc(OC)cc2)cc1
20% | -28% | -1 | -6.1% | CCOC(=O)CSCc1nc(-c2ccc(Cl)cc2)oc1C
· | 9% | · | 2.1% | COc1ccc(OCCCC(=O)OCC(=O)c2ccc3c(c2)NC(=O)CO3)cc1
-1% | 3% | -5 | -1.4% | COC(=O)C(C)N(C#N)c1nc(C)nc(C)n1 (stereo unspecified)
-4% | -1% | 0 | -0.5% | O=c1[nH]nc2n1CCCCC2
· | 0% | · | -1.8% | Cc1cc(C)c(NC(=O)COC(=O)COc2ccc3c(C)cc(=O)oc3c2)c(Cl)c1
1% | -10% | 0 | 1.3% | N=C(N)SCc1nc2ccccn2c1Br
· | -1% | · | -3.4% | CCSc1cc(N2CCCC2)nc(-c2ccc(Cl)cc2)n1
-3% | 14% | · | 3.8% | Cc1ccc(S(=O)(=O)N2CCOCC2)cc1NC(=O)C1=NN(c2ccccc2)C(=O)CC1
· | 26% | · | 0.6% | COc1ccc(NC(=O)C(=O)NCCC2CCCCN2S(=O)(=O)c2ccccc2)cc1 (stereo unspecified)
-1% | -17% | 2 | 4.4% | O=C(N/N=C\c1ccc(-c2ccc(Cl)c(Cl)c2)o1)C(=O)N1CCCC1
-17% | -3% | -16 | -0.9% | Cc1c(NC2=C(Cl)C(=O)N(c3ccccc3Cl)C2=O)c(=O)n(-c2ccccc2)n1C
-10% | 15% | 0 | -0.3% | O=[N+]([O-])c1cccc(S(=O)(=O)N2CCCC2)c1
· | 7% | · | -2.1% | C[C@H](CO)N1C[C@H](C)[C@@H](CN(C)S(=O)(=O)c2ccc(F)cc2)Oc2ccc(NC(=O)Nc3ccc(C(F)(F)F)cc3)cc2C1=O
· | 1% | · | -1.3% | CCC(=O)N(c1nnc(SCC(=O)NN2C(=O)NC3(CCC(C)CC3)C2=O)s1)C1CC1 (stereo unspecified)
-8% | -5% | -10 | -1.1% | COc1cc(OC)c2ccc(=O)oc2c1C(CC(=O)N1CCCC(C)C1)c1ccc2c(c1)OCO2 (stereo unspecified)
-9% | -19% | -9 | ? | Cc1cc(/C=C2/C(=N)N3C(c4ccccc4)=CSC3=NC2=O)c(C)n1-c1ccccc1

Continuation.
miR-21 reporter | Rango dissoc inh | GLA inh pH 4.5 | Rango-impB inh | molecule
0% | 17% | -3 | -3.1% | Cc1ccc(NC(=O)C2CCCN2C(=O)NC2CCCCC2)cc1 (stereo unspecified)
-1% | 0% | -1 | 1.1% | C#CCNC(=O)C1=C[C@@H](c2csc3ccccc23)[C@H](CCCO)[C@@H](OCC)O1
16% | -5% | · | 0.2% | CCOc1ccc(-c2nc(CSCC(=O)NC3CC3)c(C)o2)cc1
-1% | 17% | -23 | -0.4% | Cc1nc(C)n(CC(O)COc2ccc3c(c2)CCC3)n1 (stereo unspecified)
-5% | 4% | -5 | 4.9% | Cc1cc(NC(NC(=O)c2ccco2)(C(F)(F)F)C(F)(F)F)no1
-8% | -20% | 9 | -3.5% | COc1ccc(OC)c2[nH]c(=O)c(CCNC(=O)CC(C)C)cc12
-34% | 2% | -2 | 1.6% | COc1cc(-c2nnc(SCc3ccccc3Cl)o2)cc(OC)c1OC
0% | -4% | · | 0.3% | CC1CCCC(C)N1CCCNC(=O)c1csc2c1CCCCC2 (stereo unspecified)
-10% | 19% | 1 | -2.6% | Cc1onc(-c2ccccc2Cl)c1NC(=O)NCc1cccs1
-62% | -21% | 1 | -3.6% | Cc1ccc(NC(=O)Nc2ncnc3nc[nH]c23)cc1
-2% | -12% | 0 | -0.9% | CC1(C)COC(c2cccc(C3=NC(C)(C)CO3)n2)=N1
-3% | 8% | -3 | 0.0% | COC(=O)c1cccc(S(=O)(=O)N2CCC(NC(=O)Nc3cccc(F)c3)CC2)c1
-3%&22% | -14% | · | ? | COC(=O)C1=C(C)N(CC2CC2)C(=NCc2cccc(Cl)c2)N[C@H]1c1ccccc1
· | -1% | · | 12% | CCCC1(c2ccccc2)NC(=O)N(CC(=O)Nc2ccc3c(c2)OCCO3)C1=O (stereo unspecified)

Screens (PubChem BioAssay)

These rows are one share of the data, so the mix of outcomes need not match the whole.
